HNF4A DNA FP: change in binding of human HNF4 alpha to DNA; HNF4a-FITC DNA binding, fluorescence polarization, 1 h; activity change, % at 10 µM; 0.3% of 360,000 active; P41235; in the data active means activity change above about 30%, passing the limit was not always enough;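 further: controls were the assay level and a saturating level of protein; the project sought stronger binding though the title names inhibitors; some compounds called inactive have numbers as strong as hits; positive values seem to mean higher polarization but the record does not say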
Target sequence (P41235 whole entry, looked up): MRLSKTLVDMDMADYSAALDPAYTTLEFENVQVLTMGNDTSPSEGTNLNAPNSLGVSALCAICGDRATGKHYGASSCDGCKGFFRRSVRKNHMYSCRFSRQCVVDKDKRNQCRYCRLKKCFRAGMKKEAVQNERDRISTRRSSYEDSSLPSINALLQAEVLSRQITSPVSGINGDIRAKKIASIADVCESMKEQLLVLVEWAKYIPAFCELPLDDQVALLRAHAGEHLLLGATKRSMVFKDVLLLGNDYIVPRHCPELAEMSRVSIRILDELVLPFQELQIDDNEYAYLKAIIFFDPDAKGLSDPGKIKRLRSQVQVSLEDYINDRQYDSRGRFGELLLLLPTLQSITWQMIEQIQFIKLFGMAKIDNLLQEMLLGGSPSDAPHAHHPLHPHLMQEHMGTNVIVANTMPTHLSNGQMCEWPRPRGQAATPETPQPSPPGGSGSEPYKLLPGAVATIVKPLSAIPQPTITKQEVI
ALR inh: human ALR oxidase inhibition via reduced H2O2 | inhibition, % (no concentration beside the values) | AID 485317 | purified ALR, DTT oxidation, H2O2 HRP-luminol luminescence | P55789 | 3.8% of 290,000 active;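 active means mean and each replicate at 75% or more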;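 further: stock transfer was 7.5 nL into about 7.5 µL; 0% = neutral wells and 100% = wells with inactivated enzyme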
Ecoli growth: blocks Escherichia coli growth; OD600, 23 h; active compounds read low; 0.21% of 330,000 active; OD600 absorbance (no concentration beside the values);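 active means OD600 absorbance below the run mean of sample wells minus 3.6 SD, in any replicate, cut at about 0.56 in these data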;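 further: stock transfer was 300 nL into about 60 µL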
Beta2AR agonist: activates human beta-2 adrenergic receptor causing internalization; AID 504454; 0.43% of 340,000 active; Am2.2-beta2AR cells, FAP receptor internalization, flow cytometry; reference of the scale not given here; P07550; response, % (concentration not given with the values);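 active means response above a set limit, near 3 SD of response in nonfluorescent compounds, cut at about 42% in these data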;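 further: stock transfer was 100 nL into about 11 µL; a reference agonist was the positive control; negative values mostly stem from fluorescent compounds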
Target sequence (P07550 whole entry, looked up): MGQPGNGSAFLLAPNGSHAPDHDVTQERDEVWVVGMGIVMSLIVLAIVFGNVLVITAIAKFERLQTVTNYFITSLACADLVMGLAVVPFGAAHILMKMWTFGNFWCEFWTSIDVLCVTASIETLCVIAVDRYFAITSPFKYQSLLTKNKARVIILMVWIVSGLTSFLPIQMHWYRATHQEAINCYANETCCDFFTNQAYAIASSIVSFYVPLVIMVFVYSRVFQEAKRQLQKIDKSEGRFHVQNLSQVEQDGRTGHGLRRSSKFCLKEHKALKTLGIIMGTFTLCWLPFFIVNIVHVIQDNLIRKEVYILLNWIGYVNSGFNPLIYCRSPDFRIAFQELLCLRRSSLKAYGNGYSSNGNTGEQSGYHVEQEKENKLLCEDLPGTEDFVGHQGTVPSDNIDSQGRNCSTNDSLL
LANA-H2B inh: blocks KSHV LANA binding to histone H2A/H2B; Q9QR71; cell-free LANA-H2A/H2B peptide, fluorescence polarization; inhibition, % (concentration not given with the values); 0.6% of 320,000 active; AID 2629; in the data active means inhibition mostly above about 10%, no sharp cut-off; inactive means mostly below about 6.7%;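 further: stock transfer was 7.5 nL into about 10 µL; 0% = median of vehicle wells and 100% = median of positive control wells; one replicate is shown; the record names a cut of 25% in any replicate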
FGF22 binding: binders of recombinant human FGF22 by thermal shift. SYPRO orange fluorescence; percent of sucrose octasulfate shift, DMSO zero. 1.5% of 340,000 active. Q9HCT0. AID 651658. calls only at 9.99 µM;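 active means melting point raised past a set limit in the mean and every replicate; three in four hits are not shown here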
Target sequence (Q9HCT0 whole entry, looked up): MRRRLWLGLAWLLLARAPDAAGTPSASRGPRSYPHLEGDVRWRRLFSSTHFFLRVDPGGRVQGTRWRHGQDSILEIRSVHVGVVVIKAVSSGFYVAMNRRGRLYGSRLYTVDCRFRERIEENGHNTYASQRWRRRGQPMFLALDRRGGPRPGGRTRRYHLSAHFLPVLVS
UCH37 DUB inh: inhibitors of human deubiquitinating enzyme UCH37 | purified proteasome/UCH37, Ub-AMC cleavage fluorescence | inhibition, % (concentration not given with the values) | 0.33% of 330,000 active | AID 588478;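 active means mean of two replicates above 20%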;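 further: 0% = compound-free wells with enzyme and 100% = wells lacking proteasome; stock transfer was 100 nL into about 20 µL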
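system = Proteasome-associated human UCH37 deubiquitinase | amount = 0.15 nM proteasome as dispensed | medium = pH 7.4 Tris-HCl (50 mM) with ovalbumin, ATP-MgCl2, DTT | incubation = 30 min preincubation with enzyme, 25 min cleavage at room temperature | detection = AMC fluorescence 355/460 nm | read-out basis = percent inhibition | controls = no-proteasome and no-compound wells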
Numbers without * were called inactive; i = inactive; x = not tested or not shown.

The opening four entries as a preview:
SMILES	HNF4A DNA FP	ALR inh	Ecoli growth	Beta2AR agonist	LANA-H2B inh	FGF22 binding	UCH37 DUB inh
CCOC(=O)N1CCN(S(=O)(=O)c2ccc(NC(C)=O)cc2)CC1	-3.7	-20	0.67	-2	10	i	4.0
CCn1cc(C(=O)NC(C)C23CC4CC(CC(C4)C2)C3)cn1 (centres undefined)	0.3	-3	0.66	-1	5.4	i	1.9
CC(C)CC(=O)NC(=S)Nc1ccc(NC(=O)c2cccs2)cc1	2.2	-5	0.74	0	-0.8	x	2.7
Cc1nc(=O)c(-c2ccccc2)c(C)n1-c1ccccc1Cl	2.8	-18	0.69	2	2.6	i	2.0

Main list, previewed entries included:
SMILES	HNF4A DNA FP	ALR inh	Ecoli growth	Beta2AR agonist	LANA-H2B inh	FGF22 binding	UCH37 DUB inh
CCOC(=O)N1CCN(S(=O)(=O)c2ccc(NC(C)=O)cc2)CC1	-3.7	-20	0.67	-2	10	i	4.0
CCn1cc(C(=O)NC(C)C23CC4CC(CC(C4)C2)C3)cn1 (centres undefined)	0.3	-3	0.66	-1	5.4	i	1.9
CC(C)CC(=O)NC(=S)Nc1ccc(NC(=O)c2cccs2)cc1	2.2	-5	0.74	0	-0.8	x	2.7
Cc1nc(=O)c(-c2ccccc2)c(C)n1-c1ccccc1Cl	2.8	-18	0.69	2	2.6	i	2.0
CCn1c(=O)c2cc(C(=O)NCCN(C)C)sc2c2ccccc21	-1.7	x	0.65	-1	-7.1	i	-274
N#CC(c1ccc(F)cc1)c1ccc(C(=O)c2ccc(F)cc2)cc1 (centres undefined)	9.1	0	0.7	-4	2.5	x	-1.3
O=C(Nc1ccccc1)c1cccc(N2C(=O)C3C4C=CC(C4)C3C2=O)c1 (centres undefined)	-1.1	16	0.69	-4	11	i	2.1
Cc1[nH][nH]c(=O)c1N=Nc1ccccc1	0.2	4	0.64	5	2.0	x	14
CC(=O)Nc1cc([N+](=O)[O-])ccc1OCc1ccccc1	2.3	x	x	-3	x	i	x
Cc1cc(NS(=O)(=O)c2ccc(NC(=O)CSc3nnc(-c4ccco4)n3Cc3ccco3)cc2)nc(C)n1	1.5	2	0.66	-12	3.8	x	3.0
NCC(c1ccc(Cl)cc1Cl)c1c[nH]c2ccccc12 (centres undefined)	1.4	4	0.53	14	0.6	i	4.2
COc1ccc(S(=O)(=O)N(C)C)cc1NC(=O)c1ccc2c(c1)NC(=O)C(C)S2 (centres undefined)	-0.8	1	0.71	10	x	i	-1.4
COc1ccccc1NC(=O)Nc1ccc(CC#N)cc1	0.5	4	0.64	-6	-3.9	i	3.9
Cn1cnc([N+](=O)[O-])c1Sc1n[nH]c(N)n1	1.5	-1	0.67	7	-1.5	i	3.5
CC(C(=O)Nc1ccccc1-c1ccccc1)N1CCCCC1 (centres undefined)	1.6	4	0.77	-11	0.7	x	1.5
Cc1ccc(S(=O)(=O)CCC(=O)c2ccc(F)cc2)cc1	0.9	10	0.66	37	-5.0	i	2.2
CN(C)S(=O)(=O)c1cccc(C(=O)NCc2ccco2)c1	2.8	-9	0.73	3	-2.4	x	0.3
CC(=O)Oc1ccc2c(=O)c(N3C(=O)c4ccccc4C3=O)c(C)oc2c1	5.6	x	0.71	-1	0.5	x	2.9
COc1ccc(-c2csc3ncn(-c4cccc(C)c4)c(=O)c23)cc1OC	0.5	x	0.69	5	1.4	i	3.3
CCNCc1nc2cc(Cl)ccc2c(=O)[nH]1	0.7	-1	0.66	8	0.1	i	0.2
CC(C)CC(=O)NC(=S)Nc1ccc(S(=O)(=O)N2CCCC2)cc1	-2.2	2	0.71	-1	-0.8	i	1.8
CCOCCCNC(=S)NCCCNc1nc2ccc(C)cc2cc1C#N	x	-20	x	x	-2.2	i	x
CS(=O)(=O)c1ccc2nc(NC(=O)CS(=O)(=O)Cc3ccccc3)sc2c1	-2.4	27	0.68	5	2.7	i	-1.5
CC(NC(=O)Oc1cccc2ccccc12)c1ccccc1 (centres undefined)	-3.2	x	0.71	2	x	x	2.3
COc1ccc(Cl)cc1C(=O)NNC(=O)C1COc2ccccc2O1 (centres undefined)	-7.2	-10	0.7	-4	-2.7	i	-4.5
COc1ccccc1NC(=O)C(O)C(O)C(=O)Nc1ccccc1OC (centres undefined)	0.8	x	0.69	5	-1.0	x	3.6
CCCCCn1c(=O)[nH]c2cc(C(=O)NCCN3CCCCC3C)ccc2c1=O (centres undefined)	4.2	-1	0.7	4	0.3	x	-24
O=C1CC(N2CCN(C/C=C/c3ccccc3)CC2)C(=O)N1Cc1ccc(N2CCCC2=O)cc1 (centres undefined)	3.3	-49	0.7	-8	5.2	x	3.7
C[C@H](C(O)c1ccccc1)N(C)C(=O)CN (some centres undefined)	0.6	-6	x	5	-1.0	i	7.2
Cc1nn(Cc2ccc(C(=O)NC3CCCCC3)o2)c(C)c1Br	5.4	38	0.68	-12	-1.0	i	3.3
Cc1nn(C)c(Oc2cccc(Cl)c2)c1C#N	1.3	-21	0.65	-9	0.1	i	1.0
Cn1c(CN2CCCCC2)nc2cc(NS(=O)(=O)c3ccc(Cl)cc3)ccc21	1.1	0	0.66	19	0.6	x	2.7
N#C/C(=C\c1ccc([N+](=O)[O-])cc1)C(=O)NCCCn1ccnc1	0.1	16	0.64	8	1.6	i	4.9
COc1ccc(NC(=O)Cn2cc(C(C)=O)c3ccccc32)cc1	0.0	-6	0.68	0	2.7	i	0.8
Cc1cccc(CSc2ccc(S(=O)(=O)N3CCCC3)cn2)c1	3.8	-3	x	2	2.3	i	x
CC(NC(=O)CSc1nnc(CC(=O)Nc2ccc(Cl)c(Cl)c2)n1C)c1ccccc1 (centres undefined)	-1.4	14	0.7	2	1.3	x	3.6
CN(C)NC(=S)NC1CCS(=O)(=O)C1 (centres undefined)	0.6	-3	0.63	1	0.4	i	4.1
CCCn1nc(Oc2nc(NC(C)C)nc(N(C)C)n2)ccc1=O	3.8	-7	0.72	-3	-2.4	i	6.2
Cc1cccc(C)c1OCc1nnc2c3cnn(C)c3ncn12	-0.8	0	0.7	4	-2.7	x	2.3
CCC1(C)Cc2c(sc(NC(=O)CCC(=O)O)c2C#N)CO1 (centres undefined)	1.0	2	0.78	-5	-1.2	x	0.7
Cc1cc(C)cc(OCC(=O)N2N=C(c3cccnc3)CC2(O)C(F)(F)F)c1 (centres undefined)	-1.7	x	0.69	-11	2.7	x	4.1
CCOc1ccc(N(C(=O)C2CCCO2)C2C=CS(=O)(=O)C2)cc1 (centres undefined)	-0.7	x	0.68	9	-3.8	i	0.2
N#Cc1nc(-c2ccco2)oc1NCCCn1ccnc1	-2.2	47	0.72	-6	-2.4	x	-20
Cc1onc(-c2ccccc2)c1C(=O)N/N=C(\N)COc1ccc(Cl)cc1	-1.0	2	x	-5	1.1	x	x
COc1ccc(-c2[nH]ncc2CN2CCC(C(=O)N3CCOCC3)CC2)c(F)c1	0.5	3	0.68	5	8.8	i	0.8
COc1ccc(CC(=O)NNS(=O)(=O)c2ccccc2[N+](=O)[O-])cc1	-2.8	-8	0.65	1	-0.8	i	3.5
CC(CN1CCCCC1)OC(=O)C1c2ccccc2Oc2ccccc21 (centres undefined)	-3.1	-8	0.71	9	2.1	x	2.3
COc1ccc(-c2nc3n(c2C)Cc2ccccc2-3)cc1	5.9	99*	0.62	-12	-0.6	i	-110

Some of these compounds in order of count of non-hydrogen atoms, ascending:
SMILES	HNF4A DNA FP	ALR inh	Ecoli growth	Beta2AR agonist	LANA-H2B inh	FGF22 binding	UCH37 DUB inh
COc1ccc(-c2nc3n(c2C)Cc2ccccc2-3)cc1	5.9	99*	0.62	-12	-0.6	i	-110
CCC1(C)Cc2c(sc(NC(=O)CCC(=O)O)c2C#N)CO1 (centres undefined)	1.0	2	0.78	-5	-1.2	x	0.7
CC(CN1CCCCC1)OC(=O)C1c2ccccc2Oc2ccccc21 (centres undefined)	-3.1	-8	0.71	9	2.1	x	2.3

More structures:
SMILES	HNF4A DNA FP	ALR inh	Ecoli growth	Beta2AR agonist	LANA-H2B inh	FGF22 binding	UCH37 DUB inh
CCOc1ccc(CCNC(=O)CCNC(=O)c2ccc(Br)cc2)cc1OCC	0.9	-3	0.72	-6	-3.4	i	-1.2
N#Cc1c(NCc2ccccc2)ccnc1Cl	-2.9	-1	0.67	-4	4.2	x	1.9
CCN(c1ccccc1)S(=O)(=O)c1ccc(NCC2COc3ccccc3O2)nc1 (centres undefined)	6.6	x	0.67	11	-4.2	x	4.0
Cc1nc2ccc(Br)cc2c2c1CC(CO)O2 (centres undefined)	-9.1	-40	0.66	-5	2.0	i	1.4
Cc1ccc(S(=O)(=O)c2c(CO)c(-c3ccccc3)nn2C)cc1	-0.7	-13	0.67	0	5.6	i	1.1
COc1ccc(C)cc1Nc1n[n+](-c2ccccc2)c(-c2cccc(Cl)c2Cl)s1	3.2	x	0.7	15	-1.5	x	1.0
O=C1CN(C(=O)C2CC2)c2ccccc2N1	-2.4	-3	0.72	-3	-1.0	x	1.6
O=C(N1CCN(c2ccccc2)CC1)C(F)(F)C(F)F	-0.6	0	0.73	7	3.9	x	2.9
CCOc1ccc(NC(=O)[C@@H]2CCCN2C(=O)c2cccs2)cc1S(=O)(=O)N1CCOCC1	-1.0	0	0.67	0	1.6	i	-1.3
CCOC(=O)c1c(NC(=O)CN(C)C2CCN(C)CC2)sc(C(=O)Nc2ccccc2)c1C	4.7	x	0.64	-17	-4.9	i	4.7
CCOc1ccc(N=CC2=C(O)CC(C)(C)CC2=O)cc1	-2.1	-13	0.64	-3	0.7	x	9.6
CC1CCCC(C)N1C(=O)c1ccc2c(c1)S(=O)(=O)c1ccccc1C2=O (centres undefined)	-3.8	10	0.67	2	-1.2	i	-0.5
O=C(NC1=NCCS1)C1CC(=O)N(c2ccc(F)cc2)C1 (centres undefined)	-1.1	-11	0.7	0	0.5	x	-2.9
CCCn1nnc(NC(=O)COc2ccc(Cl)cc2)n1	0.9	x	0.7	-6	-0.7	x	-0.8
COc1ccc(OC)c(C(=O)c2ccc(C(=O)Nc3ccc4ccccc4c3)cc2)c1	1.2	x	0.75	11	6.6	x	-7.9
CCOC(=O)C1=C(O)/C(=C/c2cc(OC)c(OC)c(OC)c2)SC1=Nc1ccc(OC)cc1	-0.9	-10	0.72	-5	1.2	x	1.4
Cc1ccc(S(=O)(=O)N2CCCC2C(=O)O)cc1 (centres undefined)	-0.2	-3	0.68	-14	-2.3	x	4.5
Clc1ccc(-c2nnc(N3CCCC3)nn2)cc1	3.7	-32	0.68	3	-0.1	x	3.7
Cc1ccc(NC(=O)N2CCCc3ccccc32)cc1	-5.8	35	0.7	-5	-3.6	i	5.0
O=C(c1cccc(-n2cnnn2)c1)N1CC=C(c2ccccc2)CC1	-2.5	-15	0.64	4	0.5	x	1.8
CCOC(=O)COc1ccc(S(=O)(=O)N2CCN(c3ccccc3)CC2)cc1	4.1	35	0.7	14	-6.5	x	1.4
CCOc1cc(S(=O)(=O)Nc2ccncc2)ccc1F	1.6	-4	0.67	-1	-4.1	i	1.4
CCOC(=O)C1=C(O)/C(=C/c2ccc(OCC(=O)Nc3ccc(C)cc3)cc2)N=C1C	0.3	x	0.72	-9	0.5	i	-29
CC(C)=CCc1c(O)cc(O)c2c1OC(c1ccc(O)cc1)CC2=O (centres undefined)	0.6	15	0.7	2	5.2	x	3.2
Cn1nc([N+](=O)[O-])nc1Sc1nnnn1-c1ccc(C(=O)O)cc1	-2.5	-61	0.65	2	1.5	i	2.4
CCN(c1ccccc1)S(=O)(=O)c1ccc(Cl)c(NC(=O)COC(=O)c2ccc[nH]c2=O)c1	3.0	-3	0.71	-2	0.1	i	3.8
COC(=O)c1ccccc1NC(=O)c1cccc(NC(=O)CSCc2ccccc2)c1C	1.3	-16	0.66	7	1.6	x	0.6

Source: PubChem BioAssay (several laboratories)

The list is partial; rates above refer to the full screens.
